KCNQ2 inh: KCNQ2 potassium channel inhibitors, primary screen, cell-based, CHO-K1, FluxOR thallium flux, B-score (AID 2156); 1.1% of 310,000 active; B-score at 10 µM; 20 min; stronger effect = lower value; only compounds with negative scores are shown here; some inactives read as strong as hits;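 active = fluorescence ratio B-score at most minus 3 library SDs, with starting brightness B-score within 2 library SDs, cut at about -5.5 in these data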
Target sequence (O88943 whole entry, looked up): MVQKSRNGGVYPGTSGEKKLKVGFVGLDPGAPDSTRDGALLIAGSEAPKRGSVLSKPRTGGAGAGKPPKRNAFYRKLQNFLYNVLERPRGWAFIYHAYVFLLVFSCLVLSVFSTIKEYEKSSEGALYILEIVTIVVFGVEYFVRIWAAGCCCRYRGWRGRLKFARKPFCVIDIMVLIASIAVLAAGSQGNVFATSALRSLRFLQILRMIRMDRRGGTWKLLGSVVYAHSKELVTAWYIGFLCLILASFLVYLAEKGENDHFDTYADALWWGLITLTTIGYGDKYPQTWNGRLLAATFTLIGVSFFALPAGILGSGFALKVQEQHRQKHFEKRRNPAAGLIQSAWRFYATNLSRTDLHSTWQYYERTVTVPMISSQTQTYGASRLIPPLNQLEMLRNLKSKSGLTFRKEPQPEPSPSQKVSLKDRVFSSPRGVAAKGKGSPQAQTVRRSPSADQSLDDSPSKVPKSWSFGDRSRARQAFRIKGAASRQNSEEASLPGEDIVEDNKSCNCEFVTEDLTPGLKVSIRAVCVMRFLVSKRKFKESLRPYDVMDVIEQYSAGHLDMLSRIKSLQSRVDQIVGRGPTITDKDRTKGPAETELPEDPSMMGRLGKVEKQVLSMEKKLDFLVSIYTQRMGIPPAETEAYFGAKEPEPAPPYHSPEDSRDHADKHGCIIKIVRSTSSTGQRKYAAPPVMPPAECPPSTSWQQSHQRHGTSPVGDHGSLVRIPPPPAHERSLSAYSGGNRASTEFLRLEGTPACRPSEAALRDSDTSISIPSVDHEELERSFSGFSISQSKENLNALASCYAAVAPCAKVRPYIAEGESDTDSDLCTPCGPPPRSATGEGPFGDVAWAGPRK
KCNQ2 inh baseline: recorded beside KCNQ2 inh, whose call it bears; B-score; measured here: initial fluorescence intensity artifact check;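 brightness before thallium and not channel activity; 0 = typical well and far values either way flag optical interference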
Active calls of the source: *; i = inactive.

The opening 16 records, to show the layout:
KCNQ2 inh	KCNQ2 inh baseline	molecule
i	-0.13	Cc1ccccc1NC(=O)c1ccc(C)c(S(=O)(=O)N2CCN(C)CC2)c1
-6.28*	0.92*	COc1ccc(C)cc1NC(=O)C(Sc1nnc(Nc2ccccc2F)s1)c1ccccc1 (stereo not drawn)
i	0.88	O=C(NC(c1ccccc1)c1ccccc1)c1ccc(Br)o1
i	1.7	Cc1cc(C)cc(NC(=S)NCCc2ccc(S(N)(=O)=O)cc2)c1
i	0.91	CCOc1ccc(CCNC(=O)CN2C(=O)NC3(CCCc4ccccc43)C2=O)cc1OCC (stereo not drawn)
i	1.35	Cc1onc(-c2ccccc2)c1C(=O)Nc1ccc(-c2nnc3n2CCCCC3)cc1
i	-0.68	COc1ccc(Cl)cc1NC(=O)CCN1C(=O)C2C3CCC(C3)C2C1=O (stereo not drawn)
i	0.38	Cc1ccc(C2CC(c3ccc(F)cc3)Nc3nc(N)nn32)cc1 (stereo not drawn)
i	-0.06	Nc1ncnc2c1C1(CCCCC1)Cc1ccccc1-2
i	0.35	COc1ccc(S(=O)(=O)N2CCOC2CNC(=O)C(=O)NCC(C)C)cc1OC (stereo not drawn)
i	1.67	Cn1c(Cn2c(=O)sc3ccccc32)nnc1SCC(=O)N1CCOCC1
i	-0.73	CC(NC1CCN(Cc2ccccc2)CC1)c1ccc(F)cc1 (stereo not drawn)
i	0.05	O=C(CCNC(=O)c1ccccc1)NCCc1ccc(Cl)cc1
i	0.18	O=C(CCc1ccccc1)Nc1nccs1
i	0.09	Cc1ccccc1S(=O)(=O)/N=C(/c1ccccc1)N(C)C
i	0.08	O=C(Nc1cccnc1)c1ccc2snnc2c1

Main list, from the start:
KCNQ2 inh	KCNQ2 inh baseline	molecule
i	-0.13	Cc1ccccc1NC(=O)c1ccc(C)c(S(=O)(=O)N2CCN(C)CC2)c1
-6.28*	0.92*	COc1ccc(C)cc1NC(=O)C(Sc1nnc(Nc2ccccc2F)s1)c1ccccc1 (stereo not drawn)
i	0.88	O=C(NC(c1ccccc1)c1ccccc1)c1ccc(Br)o1
i	1.7	Cc1cc(C)cc(NC(=S)NCCc2ccc(S(N)(=O)=O)cc2)c1
i	0.91	CCOc1ccc(CCNC(=O)CN2C(=O)NC3(CCCc4ccccc43)C2=O)cc1OCC (stereo not drawn)
i	1.35	Cc1onc(-c2ccccc2)c1C(=O)Nc1ccc(-c2nnc3n2CCCCC3)cc1
i	-0.68	COc1ccc(Cl)cc1NC(=O)CCN1C(=O)C2C3CCC(C3)C2C1=O (stereo not drawn)
i	0.38	Cc1ccc(C2CC(c3ccc(F)cc3)Nc3nc(N)nn32)cc1 (stereo not drawn)
i	-0.06	Nc1ncnc2c1C1(CCCCC1)Cc1ccccc1-2
i	0.35	COc1ccc(S(=O)(=O)N2CCOC2CNC(=O)C(=O)NCC(C)C)cc1OC (stereo not drawn)
i	1.67	Cn1c(Cn2c(=O)sc3ccccc32)nnc1SCC(=O)N1CCOCC1
i	-0.73	CC(NC1CCN(Cc2ccccc2)CC1)c1ccc(F)cc1 (stereo not drawn)
i	0.05	O=C(CCNC(=O)c1ccccc1)NCCc1ccc(Cl)cc1
i	0.18	O=C(CCc1ccccc1)Nc1nccs1
i	0.09	Cc1ccccc1S(=O)(=O)/N=C(/c1ccccc1)N(C)C
i	0.08	O=C(Nc1cccnc1)c1ccc2snnc2c1
i	1.03	CCOC(=O)c1sc(=S)n(Cc2ccccc2)c1C
i	-0.43	Cc1c(CN2CCC(C(=O)Nc3ccc(Oc4ccccc4)nc3)CC2)cnn1C
i	1.97	CCC(=O)N1CCc2cc(S(=O)(=O)NC(Cc3ccccc3)C(=O)NC3CCCCC3C)ccc21 (stereo not drawn)
i	0.12	COCCCNC(=O)c1ccc(CSCc2ccc(C)cc2)o1
i	0.4	O=C(Cn1c(=O)n(-c2ccc(F)cc2)c(=O)c2sccc21)c1ccccc1
-12.9*	-2.44*	Cc1ccc(S(=O)(=O)CCC(=O)c2cccc([N+](=O)[O-])c2)cc1
i	-0.01	COc1ccc(-c2c(C)nn3c(N)c(C#N)cnc23)cc1OC
i	2.41	COc1ccc(C2(CNC(=O)c3cc([N+](=O)[O-])cc([N+](=O)[O-])c3)CCCC2)cc1OC
i	0.86	Cc1ccc(C(=O)CCC(=O)Nc2cccc(C)c2)cc1
i	-1.26	Cn1c(C(=O)NCc2ccccc2)cc2oc3ccccc3c21
i	0.8	Cc1ccccc1-c1nc(CN2CCC(C(=O)NCCCN3CC(C)CC(C)C3)CC2)c(C)o1 (stereo not drawn)
i	0.88	COC(=O)C1=C(C)N=C2SCCC(=O)N2C1c1cc(Br)ccc1OC (stereo not drawn)
i	-0.56	CCOC(=O)C1=C(O)C(=O)NC(c2ccccc2)=C(OCC)C1
i	-0.03	CC(=O)Nc1ccc(NC(=O)c2nc(-c3ccccc3)oc2C)cc1
-7.02*	0.22*	COc1ccc(OC)c(/C=C/C(=O)N2CCCc3ccccc32)c1
i	-0.77	CCOc1cc2[nH]c(=S)n(CCN3CCCCC3C)c(=O)c2cc1OCC (stereo not drawn)
i	-1.59	COc1ccc(N2CCN(C3CCCN(Cc4cccc(C)c4)C3)CC2)cc1 (stereo not drawn)
i	0.74	CCOc1ccccc1C(=O)N[C@H](C(=O)NCc1ccccc1)C(C)C
i	1.34	CC(C)Cn1c(C(C)NC(=O)Cc2ccccc2)nc2ccccc21 (stereo not drawn)
i	1.17	Cc1ccc(-n2nc(C)cc2NC(=O)c2ccc(C)s2)cc1
i	0.79	C=CCn1c(SCc2c(Cl)cccc2Cl)nnc1-c1cccnc1
i	2.65	CC1(C)CC(=O)C=C(Nc2ccc(OCC(F)(F)C(F)F)cc2)C1
i	0.1	CCC1CCCCN1C(=O)COC(=O)c1cc2ccccc2cc1O (stereo not drawn)
i	0.05	Cc1ccc(OCCCC(=O)NC2CCCCC2)cc1
i	-2.9	CC/C(=N\OC(=O)c1ccc(OC(C)C)cc1)c1ccc(C)cc1
i	0.17	COCCNC(=O)Nc1ccc2nc(C)sc2c1
i	-0.84	COC(=O)c1ccc2ccn(CC(=O)NC(C)C)c2c1
i	1	Cc1cc(NC(=O)c2cc(-c3ccc(Br)cc3)on2)no1
i	-0.45	COc1ccc(CNC(=O)COC(=O)c2n[nH]c3ccccc23)cc1OC
i	0.66	COc1ccc(C)cc1NC(=O)C1CCN(C(=O)c2ccc(C(C)(C)C)cc2)CC1
i	4.37	CCOc1ccc(S(=O)(=O)N2CCN(C(=O)c3ccncc3)CC2)cc1
i	-2.44	CCC(C)[C@H](NC(=O)C1CCN(C(=O)[C@H](Cc2ccccc2)NC(=O)OC(C)(C)C)CC1)C(=O)O (stereo partly drawn)
i	-2.06	CCOC(=O)c1c(C)[nH]c(N=Nc2ccccc2)c1C
i	0.29	CCn1c(=O)cc(OCC(=O)Nc2nc(C)cs2)c2ccccc21
i	0.09	COc1ccc(NC(=O)c2cccc(N3C(=O)C4CCC(C)CC4C3=O)c2)c(OC)c1 (stereo not drawn)
i	-0.16	O=[N+]([O-])c1cccc(NC(=S)N2CCN(S(=O)(=O)c3ccccc3)CC2)c1
i	1.98	Cc1ccccc1-c1nn(-c2ccc(F)cc2F)cc1CNCCCN(C)C
i	0.73	COc1ccc(NC(=O)CN2C(=O)COc3ccc(S(=O)(=O)N4CCCCCC4)cc32)cc1
i	0.09	O=C(NC1CCN(Cc2ccc(Cl)cc2Cl)CC1)c1ccccc1
i	-0.71	Cc1nc2ccccc2cc1C(=O)NCc1ccc(F)cc1
i	1.11	COC(=O)c1ccccc1Nc1ccccc1
i	0.98	COCCCn1c(SCC(=O)NC2CCCC2)nnc1-c1ccco1
i	0.18	Cc1ccc(CSCC(=O)N2CCN(c3ccccc3)CC2)cc1
i	1.98	CC(C)c1ccc(S(=O)(=O)N2CCN(C(=O)C3CCCC3)CC2)cc1

Continued.
KCNQ2 inh	KCNQ2 inh baseline	molecule
i	-0.45	CCN(CC)C(=O)C1(P(=O)(c2ccccc2)c2ccccc2)CCC1
i	-1.23	CC1(C)NC(=O)N(CC(O)CN2C(=O)CCC2=O)C1=O (stereo not drawn)
i	1.69	CCOC(=O)N1CCN(C(=O)c2ccc(CSc3ccc(Cl)cc3)cc2)CC1
i	-1.89	O=C1N(C2CCCC2)C[C@@H]2C[C@@H](c3cccn3-c3ccccn3)N3CCC[C@@]123
i	-1.75	CCCC1CC(=O)OC1(C)C(=O)CSc1n[nH]c(-c2ccccc2)n1 (stereo not drawn)
i	1.17	N#Cc1c(NC(=O)CSc2ncn[nH]2)sc2c1CCCC2
i	-1.24	Cn1cccc1Cc1nnc(SCC(=O)Nc2cccc(F)c2)n1-c1ccc(F)cc1
i	-1.51	O=S1(=O)C=C(SCc2ccc(F)cc2)Nc2ccccc21
i	1.39	O=C(CN1CCN(c2ccccn2)CC1)Nc1nc2ccccc2s1
i	-0.44	Cc1cccc(N/N=C/c2ccc(C)s2)c1
i	-0.4	O=C(Nc1cccc(C(F)(F)F)c1)c1c(O)c2ccccc2[nH]c1=O
i	0.41	Cc1ccc(-c2nn(-c3ccccc3)cc2C2CC(c3cccs3)=NN2C(=O)CCC(=O)O)cc1 (stereo not drawn)
i	0.01	CCOc1ccc(NC(=S)N(CCc2c(C)[nH]c3ccc(C)cc23)Cc2ccco2)cc1
i	-0.7	COc1ccccc1NS(=O)(=O)c1cc(C(=O)NCC(c2ccc(F)cc2)N2CCOCC2)ccc1C (stereo not drawn)
i	-2.1	CCOc1ccccc1Nc1nc(-c2sc(NC(=O)c3ccccc3)nc2C)cs1
i	2.1	O=C(Cn1cnc2cc([N+](=O)[O-])ccc2c1=O)Nc1ccc2c(c1)OCO2
i	-2.53	Cc1nnc(NC(=O)CSc2nnc(-c3ccccc3)n2C)s1
i	0.4	CC(=O)N1CCN=C1SCc1ccc(Br)cc1
i	0.8	C/C(=N/NC(=O)CCCOc1ccc(Cl)cc1Cl)c1ccc(C)o1
i	-0.1	Cc1oc(-c2ccccc2F)nc1CSCC(=O)NC1CCCC1
i	0.23	Cc1ccc(C(=O)N/C(=C/c2ccccc2)C(=O)NCc2ccncc2)cc1
i	0.62	O=[N+]([O-])c1cc([N+](=O)[O-])c(N2CCOCC2)cc1NCc1ccccc1
i	-0.02	O=C(NCCc1cccs1)C12CN(Cc3ccccc3)CC1C(c1cccc([N+](=O)[O-])c1)=NO2 (stereo not drawn)
i	-1.13	COc1cc(-c2noc(C3CCCN(S(=O)(=O)c4cccc(Cl)c4)C3)n2)cc(OC)c1OC (stereo not drawn)
i	-1.05	Cc1ccc(S(=O)(=O)Nn2c(C)ccc2C)cc1
i	1.24	CCCCC(=O)NCc1ccc2c(c1)cc(C)n2C
i	0.27	Cc1ccc(C(=O)NNC2=Nc3cccc4cccc2c34)cc1
i	-0.44	Cc1ccc(C(=O)COC(=O)CSc2cccc3cccnc23)c(C)c1
i	0.6	COc1cc(NC(=O)c2cc(-c3ccccc3Cl)on2)cc(OC)c1OC
i	-0.53	CCc1ccc(NC(=O)C(C)OC(=O)c2cc(=O)[nH]c3ccc(S(=O)(=O)Nc4ccc(F)cc4)cc23)cc1 (stereo not drawn)
i	0.04	COc1ccccc1C(=O)NCC(=O)N/N=C/c1cccc(Cl)c1
i	-1.84	O=C(Cn1ncc2c3ccccc3n(Cc3ccccc3)c2c1=O)NCCCN1CCCC1=O
i	0.01	Cc1cccc(SCc2noc(C(=O)NC(C)C)c2C(=O)O)c1
i	0.14	O=c1[nH]c(=O)n(-c2cc(Br)c(O)c(Br)c2)cc1Br
i	0.29	Cc1cccc(-c2nnc3sc(-c4ccccc4C)nn23)c1
i	-0.9	CCN(CC)C(C(=O)NC1CCCCC1)c1ccc(C)cc1 (stereo not drawn)
-6.16*	-1.37*	CCOc1ccccc1NC(=O)c1cc(CC(C)C)oc1C
-5.91*	-1.35*	Cc1ccc(C)n1-c1sc2c(c1C#N)CCCC2
i	1.27	CCCCCCc1c(C)[nH]c2nc3ccccc3n2c1=O
i	1.3	CC(=O)c1c(C)[nH]c(C(=O)N2CC(C)CC(C)C2)c1C (stereo not drawn)
i	-0.62	CC(O)[C@H]1CNC(=O)C(=O)N1CCC12CC3CC(CC(C3)C1)C2 (stereo partly drawn)
i	1.59	COc1ccc(NC(=O)C2CCN(C(=O)c3cccs3)CC2)c(OC)c1
i	-0.55	Cc1nn(CC(=O)Nc2cc(S(=O)(=O)N(C)C)ccc2Cl)c(C)c1[N+](=O)[O-]
i	1.55	COCCCNC(=O)C1CCN(c2ncccn2)CC1
i	0.8	O=C(CSc1nnc(-c2ccccc2O)n1Cc1ccccc1)NNC(=O)c1ccccc1O
i	-1.57	O=C(C/C=N/OCc1ccccc1F)c1cnc(-c2ccc(Cl)cc2)s1
i	1.63	CCCN(C(=O)c1cc(S(=O)(=O)N2CCCCC2)ccc1Cl)C1CCS(=O)(=O)C1 (stereo not drawn)
-6.23*	1.16*	O=C(Nc1cccc(Cl)c1N1CCCC1)c1cc2ccccc2o1
i	0.62	O=C(NNC(=O)c1ccc2ccccc2c1O)NC1CCCCC1
i	1.87	COC(=O)COC(=O)CC(CC(N)=O)c1ccccc1 (stereo not drawn)
i	-0.4	Cc1ccc(-n2c(C)cc(/C=N/NC(=O)CC3(C)OCCO3)c2C)cc1
i	1.55	Cc1cc(N2C(=O)C(O)=C(C(=O)c3ccco3)C2c2ccccc2F)no1 (stereo not drawn)
i	-0.88	CCc1ccc2nc(N3C(=O)C(O)=C(C(=O)c4ccco4)C3c3cccs3)sc2c1 (stereo not drawn)
i	-0.68	Cc1nc(SCC(=O)N2CCCCCC2)[nH]c(=O)c1C
i	1.62	COC(=O)c1ccccc1NC=C1C(=O)OC2(CCCCC2)OC1=O
i	0.21	N#C/C(=C\c1cn(CC(=O)O)c2ccccc12)C(=O)NCc1ccccc1
i	-0.45	c1ccc2c(c1)CCc1snnc1-2

Bioassay records as filed in PubChem.

An excerpt, so the mix of outcomes need not match the whole.
